# Screening results deposited in PubChem by several laboratories.
# eIF4H inh: inhibitors of RNA binding by human eIF4H; eIF4H fluorescence polarization binding assay; hit rate 0.94% among 290,000; inhibition, % at 35 µM; AID 2012;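 active = 50% or more with normal probe brightness, or confirmed in later tests; inconclusive = above 50% with abnormal brightness, or retests that disagree; inactive = below 50% or failed in later tests; about a fifth of its hits are not listed in these tables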;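 also: calls also rest on retests at 20 µM and on dose response follow-up; 0% = protein and probe with vehicle and 100% = probe without protein; strong numbers were not always called active; many hits fall short of the cut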
# MT1-MMP act inh: blocks activation of human MT1-MMP | P50281 | HT1080 RFP-PRO-GFP cells, GFP/RFP ratio fluorescence, overnight; percent of plate control window, DMSO zero | GFP/RFP ratio change, % at 20 µM | hit rate 0.061% among 360,000 | AID 651647;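 active = GFP/RFP ratio change of at least 30% with cell ATP level not reduced by more than half and red fluorescence within 50% of control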; also: strong numbers were not always called active
#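 Read-out: GFP/RFP fluorescence ratio; Test system: RFP-PRO-GFP reporter HT1080 cells; Compound dosing: single-point 20 µM compound, 1% DMSO; Times: overnight compound exposure at 37 °C.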
# HIV Env fusion: blocks HIV Env-driven cell-cell fusion. HeLa-JRFL Env/CEM21 cell fusion, luciferase. inhibition, % at 12.3 µM. hit rate 1.1% among 360,000;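 active = mean replicate inhibition score of at least 50 and every replicate individually at or above 50; inconclusive = only one of the two criteria met; inactive = mean below 50 and not all replicates reaching 50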;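 also: 0% = plate neutral controls and 100% = maraviroc near 300 nM; one replicate is shown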
# PABP polyA inh: blocks human PABP binding to poly(A) RNA | fluorescence polarization | inhibition, % at 35 µM | hit rate 1% among 290,000 | AID 2014;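 active = 50% or more with normal probe brightness, or confirmed in later tests; inconclusive = above 50% with abnormal brightness, or retests that disagree; inactive = below 50% or failed in later tests; about a fifth of its hits are not listed in these tables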;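 also: calls also rest on retests at 20 µM and on dose response follow-up; controls were probe without protein and protein plus probe with vehicle; some compounds called inactive have numbers as strong as hits; many hits fall short of the cut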
# Target sequence (P11940 whole entry, looked up): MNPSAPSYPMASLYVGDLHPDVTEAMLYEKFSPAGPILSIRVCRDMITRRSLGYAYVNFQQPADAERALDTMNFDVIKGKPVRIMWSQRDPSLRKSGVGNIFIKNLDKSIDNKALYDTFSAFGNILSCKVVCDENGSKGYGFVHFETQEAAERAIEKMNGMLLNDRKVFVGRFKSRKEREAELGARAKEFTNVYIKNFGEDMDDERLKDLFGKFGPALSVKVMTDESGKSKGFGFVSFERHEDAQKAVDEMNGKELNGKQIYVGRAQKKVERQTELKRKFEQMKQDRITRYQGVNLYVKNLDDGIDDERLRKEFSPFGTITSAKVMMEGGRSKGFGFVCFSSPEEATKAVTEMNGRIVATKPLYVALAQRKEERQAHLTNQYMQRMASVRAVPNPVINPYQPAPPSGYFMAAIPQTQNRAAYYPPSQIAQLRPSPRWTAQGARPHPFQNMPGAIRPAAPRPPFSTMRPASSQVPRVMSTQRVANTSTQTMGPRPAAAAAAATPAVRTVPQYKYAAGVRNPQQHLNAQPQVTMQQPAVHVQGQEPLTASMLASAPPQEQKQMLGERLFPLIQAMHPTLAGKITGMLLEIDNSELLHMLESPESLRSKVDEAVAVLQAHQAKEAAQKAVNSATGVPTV
# Yeast UUG start: modulators of start codon recognition fidelity in yeast | hit rate 0.13% among 350,000 | S. cerevisiae UUG-firefly luciferase reporter, luminescence/redox ratio | activity score, % at 18.7 µM | AID 602363;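 active = replicate mean at a twofold rise or more, about +100% in these data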;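 also: firefly luciferase made from a UUG start codon reports start codon fidelity; reporter light over untreated wells divided by growth signal over untreated wells; some hits fall short of that in this replicate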
# CSC inhib: cancer stem cell inhibition; cancer stem cell-like cells viability, luminescence; inhibition, % at 7.5 µM; hit rate 1.1% among 300,000; AID 2717;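 active = mean at 75% or more and at least half the replicates too; inconclusive = mean and replicates disagree; tested in HMLE shEcad cells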;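 also: 0% = median of negative and 100% = median of positive control wells; the first replicate is given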
# Rce1 inhib: blocks yeast Ras-converting enzyme. Q03530. yeast membranes, quenched prenylated peptide cleavage fluorescence. calls only. hit rate 0.27% among 290,000. AID 2563;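 active = fall in fluorescence gain of 50% or more versus controls, with final raw signal at or below 3038400; inconclusive = same 50% fall but final raw signal above 3038400; inactive = fall in fluorescence gain under 50%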;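 also: plate controls were neutral control wells for no effect and wells lacking membranes for full effect; tested at 10 µM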
# MT1-MMP act inh RFP: second read-out of MT1-MMP act inh, no call of its own (marks repeat the call); RFP signal change, %; measured here: RFP expression control read;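 0 = vehicle wells; hits needed this value within 50% of zero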
# An asterisk follows results filed as active; i = inactive; ? = inconclusive; / = no result given; & = joins results of further samples.
SMILES,eIF4H inh,MT1-MMP act inh,MT1-MMP act inh RFP,HIV Env fusion,PABP polyA inh,Yeast UUG start,CSC inhib,Rce1 inhib
Nc1ccc(C(=O)OCCCc2nc3cc4ccccc4cc3[nH]2)cc1,5.3,7.4,8.7,-8.3,-1.8,-30.7,16.9,i
COc1ccc(S(=O)(=O)N(C)c2ccc(C(=O)N3CCOCC3)cc2)cc1OC,-8.5,-2.2,0.8,/,-1.5,/,0.3,i
NNC(=O)Cn1c(-c2nonc2N)nc2ccccc21,1.9,3.9,1.5,-1.3,-12.1,/,10.3,i
O=C(Cc1ccc([N+](=O)[O-])cc1)N1N=C2CCCCC2C1(O)C(F)(F)F (configuration not stated),6.8,2.4,-1.9,19.9,-5.4,-3.0,3.5,i
Cc1ccc(NC(=S)NCC(C)CSc2ccc(Cl)cc2)cc1 (configuration not stated),-7.4,4.5,4.5,35.8,-12.4,/,53.3,i
CC12CCC(C(=O)Nc3ccccc3Br)(C/C1=N\O)C2(C)C (configuration not stated),1.7,3.5,6.8,-46.5,-0.1,-10.4,59.1,i
Cc1ccc(Nc2ncnc(N)n2)cc1,2.6,0.6,3.6,-8.0,3.0,-11.8,/,i
O=C(COc1ccc2c3c(c(=O)oc2c1)CCCC3)NCc1cccnc1,-7.6,2.1,1.0,-9.4,7.1,-16.0,-14.5,i
CC(=O)Nc1ccc(S(=O)(=O)Nc2cc(S(=O)(=O)N3CCCCC3)ccc2O)cc1,/,8.6,0.7,-7.0,/,-16.9,/,/
Cc1ccccc1C(=O)OCC(=O)N1CC(=O)Nc2ccccc21,/,-0.8,-0.5,5.7,/,-14.1,/,/
CCOc1ccc2oc(C(=O)OCC(=O)NC3CCCC3)c(C)c2c1,/,6.8,-4.4,1.2,/,-13.0,/,/
COc1cc(-c2nnc(NC(=O)CCS(=O)(=O)c3ccc(F)cc3)o2)cc(OC)c1OC,/,2.3,-1.4,-28.5,/,-14.3,7.1,i
Cn1c(=O)c2c(nc(SCC(=O)c3cccs3)n2Cc2ccc(F)cc2)n(C)c1=O,7.4,0.1,0.6,/,9.6,-4.0,-12.5,i
CCOc1ccc(NC(=O)CN(C)C(=O)c2ccc(=O)[nH]c2)cc1OCC,2.8,-0.3,1.1,-10.9,1.9,-13.4,0.3,i
CC(=O)N1c2c(cc(Br)cc2S(=O)(=O)N2CCN(c3ccccc3F)CC2)CC1C (configuration not stated),-3.0,2.8,-10.9,7.3,6.2,3.4,20.6,i
Cc1cc(C)n2c(SCc3ccc(Br)cc3)nnc2n1,-5.5,0.8,-1.9,5.2,1.5,32.9,1.3,i
CC1=NOC(=O)/C1=C/c1ccc(O)c(Br)c1,32.1,-9.3,1.6,-2.9,-13.3,-20.5,/,i
O=S(=O)(NCC1CCN(c2ccc(S(=O)(=O)N3CCOCC3)cc2)CC1)c1ccc(F)cc1,2.4,-2.1,-10.2,1.6,3.4,0.4,33.6,i
CCn1c(=N)n(CC(=O)c2ccc(OC)c(OC)c2)c2ccccc21,-0.9,6.5,-2.5,/,-2.5,/,2.1,i
COCCC(=O)NC12CC3CC(CC(C3)C1)C2,-11.3,-5.0,-5.3,-37.0,-15.1,11.3,-11.8,i
CC(C)NS(=O)(=O)c1ccc(NC(=O)C(C)OC(=O)C2CCC2)cc1 (configuration not stated),/,-0.3,3.1,1.5,/,-3.3,-8.8,/
COc1ccccc1N1CCN(C(c2cccs2)C(C)NS(=O)(=O)c2ccccc2)CC1 (configuration not stated),5.5,-1.9,-9.6,i,-19.8,-14.2,11.2,i
CC1CCN(C(=O)c2cc(S(=O)(=O)N3CCCCC3)c[nH]2)CC1,-3.5,0.3,-4.8,-17.0,-11.9,-23.4,-5.2,i
Cc1nnc(SCC(=O)Nc2ccc(F)cc2F)n(N)c1=O,10.4,1.0,-1.3,-7.6,2.5,1.8,-8.4,i
CCCc1c(C(=O)N/N=C/c2ccncc2)nnn1-c1nonc1N,-2.6,3.9,1.6,-1.1,9.2,-10.3,/,i
COc1cc(NC(=O)C2CCN(c3cnccn3)CC2)cc(OC)c1OC,-6.3,1.3,5.7,0.6,2.2,3.4,6.5,i
O=C(COC(=O)/C=C/c1ccc(C(F)(F)F)cc1)NCCC1=CCCCC1,-10.5,1.8,2.5,-2.6,-16.5,-16.2,-5.9,i
O=C1CC(Cc2ccc(Cl)cc2)C(=O)N1c1ccccn1 (configuration not stated),-5.2,2.1,1.5,/,0.0,-8.0,-0.6,i
Cc1cccc(C(=O)Nc2cc(C)ccc2NC(=O)COc2ccccc2)c1,-5.5,-4.4,-6.5,/,-12.0,1.5,-9.8,i
O=S(=O)(c1ccc2c(c1)OCCO2)N1CCCN(S(=O)(=O)c2c(F)cccc2F)CC1,/,0.9,-7.2,-13.4,/,-13.2,7.4,/
CC(=O)N1CCN(C2=NC(=O)/C(=C/c3ccc(OS(=O)(=O)c4ccccc4)cc3)S2)CC1,-9.3,-6.9,-10.3,2.2,-5.4,/,-0.3,i
CCCC1OC23CCCCC2C(C#N)(C(=N)O3)C1(C#N)C#N (configuration not stated),?,-14.7,17.6,-9.1,?,-3.4,-7.1,i
Cc1cccn2c(=O)c3cc(C(=O)NCCc4ccccc4)c(=N)n(CCCn4ccnc4)c3nc12,-4.5,3.6,2.1,/,-7.7,-23.2,33.1,i
O=C(Nc1ccccn1)C1CCN(C(=O)Nc2ccccc2)CC1,/,-1.6,3.2,8.4,/,-17.3,-10.4,i
Cn1c(=O)[nH]c(=O)c2c1nc(SCCN1CCCCC1)n2CCCc1ccccc1,-4.5,-4.4,-11.7,/,-10.5,-4.1,-18.0,/
CCn1c2ccccc2c2cc(NC(=O)COC(=O)c3ccccc3Br)ccc21,5.2,-0.3,-2.2,-9.3,-3.2,-5.7,-1.6,i
COc1ccc(CCN2C(=O)CC(NNC(=O)c3cccc(O)c3)C2=O)cc1 (configuration not stated),14.7,4.1,4.9,-141.9,1.9,0.9,-9.5,i
CC1CCCCN1C(=O)c1ccc(S(=O)(=O)N2CCCCC2C)cc1 (configuration not stated),-2.5,4.4,3.6,/,-2.5,9.2,-22.1,i
CN(C)C(=O)N1CCC(C(=O)N2CCCC(C(=O)c3cccc4ccccc34)C2)CC1 (configuration not stated),-6.1,2.9,3.0,-6.2,-6.7,/,/,i
COc1ccccc1-c1csc(C(NC(C)=O)c2cccc(F)c2)n1 (configuration not stated),/,-0.1,2.7,-40.7,/,-3.9,/,/

# Reformatted as tab-separated lines: 5 of the compounds above.
molecule	eIF4H inh	MT1-MMP act inh	MT1-MMP act inh RFP	HIV Env fusion	PABP polyA inh	Yeast UUG start	CSC inhib	Rce1 inhib
O=S(=O)(c1ccc2c(c1)OCCO2)N1CCCN(S(=O)(=O)c2c(F)cccc2F)CC1	/	0.9	-7.2	-13.4	/	-13.2	7.4	/
CC(=O)N1CCN(C2=NC(=O)/C(=C/c3ccc(OS(=O)(=O)c4ccccc4)cc3)S2)CC1	-9.3	-6.9	-10.3	2.2	-5.4	/	-0.3	i
CCCC1OC23CCCCC2C(C#N)(C(=N)O3)C1(C#N)C#N (configuration not stated)	?	-14.7	17.6	-9.1	?	-3.4	-7.1	i
Cc1cccn2c(=O)c3cc(C(=O)NCCc4ccccc4)c(=N)n(CCCn4ccnc4)c3nc12	-4.5	3.6	2.1	/	-7.7	-23.2	33.1	i
O=C(Nc1ccccn1)C1CCN(C(=O)Nc2ccccc2)CC1	/	-1.6	3.2	8.4	/	-17.3	-10.4	i

# The results go on.
SMILES,eIF4H inh,MT1-MMP act inh,MT1-MMP act inh RFP,HIV Env fusion,PABP polyA inh,Yeast UUG start,CSC inhib,Rce1 inhib
O=C1C=C(c2ccnc3cc(Cl)ccc23)C[C@@H](c2ccc3c(c2)OCO3)C1,/,10.4,-26.5,65.8*,/,-11.5,6.4,/
Nc1nnc(-c2cccc([N+](=O)[O-])c2)s1,3.2,0.1,-1.8,6.1,1.9,/,-0.7,i
O=C(CN(Cc1cccs1)C(=O)CNS(=O)(=O)c1ccc(Cl)cc1)NCC1CCCO1 (configuration not stated),-4.1,0.1,-1.2,-9.4,14.7,/,4.1,i
CCOC(=O)c1cnn(-c2cc(Oc3ccccc3)ncn2)c1N,5.3,0.8,-3.8,/,-7.4,-11.5,-2.3,i
CN(CCN(C)C(=O)c1[nH]cnc1C(=O)Nc1ccccc1)C(=O)c1[nH]cnc1C(=O)Nc1ccccc1,/,2.1,4.9,7.2,/,-15.3,-19.5,/
CCCn1cnnc1CNC(=O)C1CCC(=O)N(CCc2ccc(OC)cc2)C1 (configuration not stated),-1.6,-1.6,4.7,9.7,-1.8,-15.0,-4.7,i
O=C(Nc1ccc2nc(N3CCOCC3)sc2c1)c1ccc(F)cc1,/,0.6,-1.8,-51.2,/,-15.2,/,/
CC(=O)NCCc1nc2cc(NS(=O)(=O)c3ccccc3)ccc2n1C,-2.7,5.6,5.7,7.7,-2.7,-25.4,0.0,i
COc1ccc(S(=O)(=O)N2CCC(C(=O)N[C@H](C(=O)NCc3ccncc3)C(C)C)CC2)cc1,/,0.9,2.0,7.2,/,5.6,-13.2,i
CCOC(=O)c1cccc(NC(=O)Cn2c(CC(=O)N3CCCC3)nc3ccccc32)c1,0.1,/,/,/,-0.5,/,/,i
CC(C)CNC(=O)c1cc2nc(C3CC3)cc(C(F)(F)F)n2n1,/,1.8,1.3,7.0,/,-8.6,-25.7,i
COC(=O)[C@]12C(=O)NC[C@H](CN1c1ccc(C(F)(F)F)cc1)N2C,/,0.5,5.0,11.8,/,5.0,/,/
Cc1cc(C)nc(N/N=C/C2=C(O)CC(c3ccc(F)cc3)CC2=O)n1 (configuration not stated),14.4,1.8,-8.9,-4.1,14.8,-32.0,24.5,i
CC1(c2ccc(Cl)cc2)NC(=O)N(CC(=O)N2CCCC2)C1=O (configuration not stated),-6.6,-1.0,3.4,-71.9,8.9,3.3,-5.6,i
CC(C)n1c(SCC(=O)Nc2ccccc2)nc2c1c(=O)[nH]c(=O)n2C,-15.9,1.9,4.0,-10.1,9.0,/,-7.3,i
COc1cc(F)ccc1-c1csc(C(NC(C)=O)c2cccc(F)c2)n1 (configuration not stated),/,1.3,3.7,-43.8,/,-16.6,/,/
CC1CCCC(C)N1C(=O)c1cc(-c2ccco2)on1 (configuration not stated),-5.2,0.0,2.5,0.1,-5.3,-6.9,0.7,i
CCOC(=O)CC(=O)CSc1ccc2nnc(-c3cccc(F)c3)n2n1,14.2,-6.1,-1.5,17.6,17.6,-17.2,2.7,i
O=C(Nc1nccs1)C1CC(=O)N(c2ccccc2Cl)C1 (configuration not stated),-0.8,4.5,3.3,0.3,-2.9,-14.3,-7.9,i
CCNC(=S)N(CCc1c(C)[nH]c2ccc(C)cc12)Cc1cccs1,0.7,-3.2,-2.3,-18.2,10.7,/,20.6,i
O=C(NC1CCCCC1)C(=O)N(Cc1cccnc1)C(C(=O)NCc1ccco1)c1ccccc1 (configuration not stated),-2.5,/,/,/,0.7,/,-8.3,i
C=CCc1cc(Cl)ccc1OCCN(C)C,-4.7,1.7,3.4,/,2.4,-4.9,-10.1,i
CCOC(=O)C1CCCN(S(=O)(=O)c2nc3nc(C)cc(C)n3n2)C1 (configuration not stated),-2.2,0.5,2.2,-3.2,-2.0,-14.6,13.7,i
COC(=O)c1sccc1NC(=S)Nc1ccc(F)cc1,-6.4,4.2,2.8,8.7,-1.1,-22.1,-4.2,i
C[C@@H]1CN([C@@H](C)CO)C(=O)CCCn2nncc2CO[C@H]1CN(C)C(=O)C1CCCCC1,/,-1.0,6.4,18.6,/,-0.2&-10.9,/,/
CCCCNC(=O)Cn1c2c(c(-c3ccccc3Cl)cc1=O)CCC2,-4.7,0.4,-2.7,10.9,-1.5,-4.8,0.6,i

# Not all compounds are listed; count on the stated rates, not on these rows.
